Compound activity as filed in PubChem BioAssay.
AmpC inh no det – Promiscuous and Specific Inhibitors of AmpC Beta-Lactamase (assay without detergent); AID 585, 2007; Potency, µM (doses to about 28.7 µM), inactives show at the top dose activity change, negative = inhibition; AmpC nitrocefin hydrolysis, absorbance 480 nm, no detergent; potencies from a single point are estimates; 71,000 tested, 1.8% active; active = falling curve, for most hits resting on a single point; inconclusive = weak or doubtful change; inactive = flat or rising curve; note: % of control where 0% means no effect; a quarter of the inactives give rising signals
Target sequence (P00811 whole entry, looked up): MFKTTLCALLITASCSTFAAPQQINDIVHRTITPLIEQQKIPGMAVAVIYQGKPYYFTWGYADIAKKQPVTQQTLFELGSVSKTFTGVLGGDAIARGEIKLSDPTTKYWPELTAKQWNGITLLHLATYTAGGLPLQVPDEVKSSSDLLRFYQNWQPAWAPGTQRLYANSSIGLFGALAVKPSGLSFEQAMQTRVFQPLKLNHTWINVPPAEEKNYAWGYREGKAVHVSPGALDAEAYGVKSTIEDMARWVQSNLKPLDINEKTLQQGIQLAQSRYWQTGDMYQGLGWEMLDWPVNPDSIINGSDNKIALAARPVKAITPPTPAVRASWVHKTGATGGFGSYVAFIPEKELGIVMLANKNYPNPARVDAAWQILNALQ
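AmpC in 20 mM phosphate buffer pH 7.0 was preincubated 15 min at room temperature with compounds. Nitrocefin (800 uM stock) was then added and hydrolysis followed at 480 nm every 20 s for 4 min.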
* hit, by the source's call; ? = inconclusive; [ ] = dose if it differs, or a comment. Potency is the fitted concentration of half-maximal effect.

SMILES | AmpC inh no det
OC[C@H]1NC[C@H](O)[C@@H](O)[C@H]1O | -2%
CCN(C(=O)CCN1C(=O)c2ccccc2C1=O)C1CCCCC1 | 34%
CC(=O)OCC1=C(C(=O)O)N2C(=O)[C@@H](N)[C@@H]2SC1 | 5µM*
CN1CCN(c2ccc(Cl)cc2NC(=O)c2nn(-c3ccccc3)c(=O)c3ccccc23)CC1 | 78%
CCOc1ccc(N(CC(=O)Nc2ccc(F)c(F)c2)S(=O)(=O)c2c(C)noc2C)cc1 | -1%
O=C(CSc1nnc(-c2ccco2)o1)NC1CCCCC1 | -2%
COc1ccc(-c2nc(C#N)c(NCc3ccccc3Cl)o2)cc1 | -9%
COc1ccc2[nH]c3c(c2c1)CCNC3 | -8%
CCCOC(=O)c1cccc(NC(=O)C(C)(C)C)c1 | 11%
COc1ccc(C(OC(=O)c2ccco2)C(=O)NCc2ccco2)cc1 (stereo not drawn) | -7%
COc1ccc(CN2C(=O)c3ccccc3C2C(=O)NCc2cccnc2)c(OC)c1 (stereo not drawn) | 21%
O=c1c(-c2cc(F)cc(F)c2)nc2cnc(N3CCOCC3)nc2n1-c1ccccc1 | 6%
CCOC(=O)c1ccc(COC(=O)c2nonc2N)cc1 | 0%
N#Cc1nc(Cc2ccccc2)oc1N1CCN(c2ccccc2)CC1 | 8%
Cc1occc1-c1nc(-c2ccccn2)no1 | 6%
O=C(CCc1ccccc1)OCCN1CCOCC1 | 6%
CN(C)C(=O)c1ccc(-c2ccc3ncnc(NC4CCNCC4)c3c2)cc1 | 10%
CCCCCCN=CC1=C(O)CC(C)(C)CC1=O | 4%
CCc1nnc(NC(=O)CSc2nnc(-c3ccccc3NC(=O)c3ccccc3)o2)s1 | -4%
CCOC(=O)CSc1nc(N)cc(=O)[nH]1 | 7%
CCOc1cc(NC(=O)c2ccccn2)c(OCC)cc1NC(=O)CC(C)C | 63%
COc1ccc(CCNC(=O)CSc2nnnn2Cc2ccc3c(c2)OCO3)cc1OC | 33%
COc1ccc(CC[N@+]2(C)COc3cc4oc(=O)cc(C)c4cc3C2)cc1OC | -2%[5.75 µM]
Cc1ccc(-c2nc3ncccc3o2)cc1NC(=O)Cc1ccc(Cl)cc1 | 0%
CCC1CCCCN1C(=O)Cn1c(C(=O)OC)cc2ccsc21 (stereo not drawn) | 25%
O=C(NCC1CCCO1)c1ccc2c(c1)OCO2 (stereo not drawn) | -5%
O=C(NC1CC2CCCC(C1)N2C(=O)NC1CCCCC1)c1ccccc1 (stereo not drawn) | 1%
CNC(=O)[C@]1(C)C[C@H]1[C@H](NC(=O)[C@]1(C)C[C@H]1[C@H](NC(=O)OCc1ccccc1)c1ccccc1)c1ccccc1 | 20%
CS(=O)(=O)Nc1ccc(C(=O)NC2CCCC2)cc1 | 0%
CCCOc1ccc(-c2cnc(SCC(N)=O)nc2N)cc1 | 15%

Quoted from the listing.
CCCOc1ccc(-c2cnc(SCC(N)=O)nc2N)cc1 in AmpC inh no det shows 15%
CS(=O)(=O)Nc1ccc(C(=O)NC2CCCC2)cc1 in AmpC inh no det shows 0%

(more compounds)
SMILES | AmpC inh no det
CCCCOc1cccc(C(=O)O)c1 | -5%
CC(C(=O)c1ccccc1)n1cnc2ccccc2c1=O (stereo not drawn) | -6%
COc1ccc2[nH]cc(CCNc3nc(-c4ccc(C(=O)N(C)C)cc4)nc4ccccc34)c2c1 | 80%
CCOC1(NC(=O)c2ccccc2)C(C)=CC(=O)C=C1C | 1%
CCC(=O)Nc1nc(CC(=O)Nc2ccccc2)cs1 | -10%
COc1cccc(NC(=O)CSc2nnc(-c3cc(-c4ccccn4)nc4ccccc34)o2)c1 | 23%
CCN(CC)C1CC(=O)N(c2cccc(C)c2)C1=O (stereo not drawn) | 2%
CCNS(=O)(=O)c1cc(S(C)(=O)=O)ccc1Cl | -2%
Cc1cc(C)cc(OCc2nnc(SCC(=O)Nc3ccccc3)o2)c1 | -15%
CC1(C)CC2CC(C)(CN2C(=O)CCCN2C(=O)c3ccccc3C2=O)C1 (stereo not drawn) | 85%
O=C(CC1Sc2ccccc2NC1=O)Nc1cccc(C(=O)O)c1 (stereo not drawn) | 8%
N/C(=N\c1nc2c(c(=O)[nH]1)CCCC2)Nc1ccccc1 | 8%
CC1(C)CC(=O)C=C(Nc2cc(-c3ccccc3)[nH]n2)C1 | -20%
Cc1ccccc1C(=O)NC1CCN(Cc2nnnn2Cc2ccc(F)cc2)CC1 | 55%
COc1cc2c(cc1OC)C(c1cccs1)NCC2 (stereo not drawn) | -16%
COc1cc(C(=O)N(Cc2cc3ccccc3[nH]c2=O)CC2CCCO2)cc(OC)c1OC (stereo not drawn) | 19%
CCCCC(=O)Nc1cccc(-c2nn3c(C)nnc3s2)c1 | 26%
Cc1nnc(N(CCC#N)CCC#N)s1 | -9%
Cc1ccc(C(=O)Nc2cccc(C(=O)NCc3ccco3)c2)cc1 | -19%
CN/S(=N/S(=O)(=O)c1ccccc1)c1ccc(C)cc1 (stereo not drawn) | 6%
COc1ccc2nc(-c3ccccc3)[nH]c2c1 | -16%
O=C(COC(=O)c1ccc(S(=O)(=O)Nc2ccccc2)cc1)NCCN1C(=O)CSC1=O | 19%
Nc1nc(Nc2cccc3ccccc23)nc(C2CCCC2=O)n1 (stereo not drawn) | 37%
COc1nc(Nc2cccc(C(F)(F)F)c2)nc(OC)n1 | -13%
CCN1C[C@]2(C)CC[C@H](O)[C@@]34[C@@H]5CC6[C@@H](OC)C[C@@](O)([C@@H]5[C@@H]6O)[C@H](C[C@@H]23)[C@H]14 | -8%[12.8 µM]
O=C(NC12CC3CC(CC(C3)C1)C2)N1CCN(C(=O)C2CCCO2)CC1 (stereo not drawn) | 8%
CSc1cccc(NC(=O)CSc2nnc(C)s2)c1 | 7%
O=C(Cc1cc(=O)[nH]c(=O)[nH]1)N1CCC(Cc2ccccc2)CC1 | 13%
COc1ccc(-n2ncc3c(NCc4cccs4)ncnc32)cc1 | -5%
C=C(C)[C@H]1Cc2c(ccc3c2O[C@H]2COc4cc(OC)c(OC)cc4[C@@H]2C3=O)O1 | 115%
CC(=O)N=c1sc2ccccc2n1C | -5%
Cc1ccccc1CS(=O)(=O)CCC(=O)N1CCN(c2ccc(N3CCOCC3)nn2)CC1 | 59%
CC(C)Nc1nc(N(c2ccccc2)c2ccccc2)nc(-n2ccnc2)n1 | 20%
O=C(CSc1nc2ccccc2[nH]1)NCCN1CCCCC1 | -10%
CCCN(S(=O)(=O)c1ccc(OCC)cc1)S(=O)(=O)c1cccs1 | -3%
Nc1cc(=O)[nH]c(SCCNS(=O)(=O)c2ccccc2)n1 | -21%
CCOC(=O)Cn1cnc2c(cnn2-c2ccc(Cl)cc2)c1=O | 2%
CCn1nc(C(=O)OCC(=O)c2c[nH]c3ccccc23)c2ccccc2c1=O | 9%
Cc1ccc2c(COC(=O)c3cnc(C)cn3)cc(=O)oc2c1 | -6%
COc1cccc(Nc2ncc3nc(-c4cc(F)cc(F)c4)c(=O)n(C4CC4)c3n2)c1 | -3%
CC(=O)C1=C(O)C(=O)N(CCc2c[nH]c3ccccc23)C1c1ccc(O)cc1 (stereo not drawn) | -21%
CC(C)CC(NC(=O)COc1ccccc1)C(=O)O (stereo not drawn) | -1%
CS(=O)(=O)NCCSc1nnnn1-c1ccccc1 | -2%
CC(=O)N1CCN(C(=O)COc2ccc(Br)cc2)CC1 | -6%
COc1ccc(C)cc1S(=O)(=O)N1CCN(c2cccc(C(F)(F)F)c2)CC1 | 9%
CC(C)CCn1c(N)c(S(=O)(=O)c2cccs2)c2nc3ccccc3nc21 | -22%
CCOC(=O)C1=C(c2ccccc2)NC(SCC(=O)NC2CCCCC2)=C(C#N)C1c1ccco1 (stereo not drawn) | -8%
O=C(O)COc1cccc(NC(=O)C2CCCO2)c1 (stereo not drawn) | 3%
O=C(CCCC(=O)N1CCc2ccccc21)N1CCc2ccccc21 | -4%
O=C(O)c1coc2ccccc12 | -7%
O=C(c1sc2ccccc2c1Cl)N1CCC2(CC1)OCCO2 | 29%
O=C(COC(=O)c1cccs1)c1ccc2c(c1)OCCO2 | -2%
Cc1ccc(S(=O)(=O)c2c(N)n(CC3CCOC3)c3nc4ccccc4nc23)cc1 (stereo not drawn) | 48%
O=C1CC(N2CCCN(C3CC(=O)N(c4ccc(F)cc4)C3=O)CC2)C(=O)N1c1ccc(F)cc1 (stereo not drawn) | 71%
O=S(=O)(O)CCN1CCOCC1 | -15%
O=C(COC(=O)Cc1cn2ccsc2n1)NC12CC3CC(CC(C3)C1)C2 | 22%
Fc1ccc(Cc2nnc(-c3cccs3)o2)cc1 | 6%
O=C(CCC1CCCCC1)NCc1ccncc1 | 3%
Cc1nc(SCC(=O)Nc2c(C)n(C)n(-c3ccccc3)c2=O)[nH]c(=O)c1Cc1ccccc1 | 29%
CCOC(=O)c1sc(=S)n2c1[nH]c(=O)c1ccc(C(=O)OC)cc12 | 13µM*
(continued)
SMILES | AmpC inh no det
O=c1c(-c2ccccc2)nc2cnc(N3CCOCC3)nc2n1C[C@H]1CCCO1 | 11%
CCN1CCN(/C=N/c2nc(C)cs2)CC1 | -8%
CC(=O)c1cccc(NC(=O)N[C@@H](CC(C)C)C(=O)O)c1 | 10%
CS(=O)(=O)N1CCC2(CCN(Cc3nccs3)CC2)CC1 | 5%
Cc1ccc(N=C(c2cccs2)N2CCOCC2)cc1 | 6%
O=C(COC(=O)C1c2ccccc2Oc2ccccc21)Nc1ccc2c(c1)OCO2 | ?
CC1CCC(C(=O)NC(C(=O)N2CCC3(CC2)OCCO3)C(C)C)CC1 (stereo not drawn) | 16%
N#Cc1nc(-c2cccs2)oc1NCCCN1CCOCC1 | 16%
CC1(C)CC(=O)C2=C(C1)OC(N)=C(C#N)C2c1ccccc1 (stereo not drawn) | -2%
c1ccc(OCCCn2nnc(-c3ccncc3)n2)cc1 | 14%
COc1ccc(-c2cc3nc4c(c(=O)n3[nH]2)CCC4)cc1 | -11%
CCOC(=O)c1c(C)nc(-c2ccccc2)nc1NC(=O)CC | 28%
COc1ccc(N(CC(=O)NCc2ccccc2)S(=O)(=O)c2c(C)noc2C)cc1 | 23%
Cc1cc(NC(=O)COC(=O)c2n[nH]c3ccccc23)no1 | -5%
Cc1cc2c3c(c1C)C1(C(=O)N3C(C)(C)CC2C)C(C#N)=C(N)Oc2n[nH]c(C)c21 (stereo not drawn) | 52%

A different layout for some results above:
> N#Cc1nc(-c2cccs2)oc1NCCCN1CCOCC1
  AmpC inh no det: 16%
> CC1(C)CC(=O)C2=C(C1)OC(N)=C(C#N)C2c1ccccc1 (stereo not drawn)
  AmpC inh no det: -2%
> c1ccc(OCCCn2nnc(-c3ccncc3)n2)cc1
  AmpC inh no det: 14%
> COc1ccc(-c2cc3nc4c(c(=O)n3[nH]2)CCC4)cc1
  AmpC inh no det: -11%

(cont.)
SMILES | AmpC inh no det
CC(C)[N+](=O)[O-] | -4%
CCc1cc2c(=O)c(-c3ccon3)c(N)oc2cc1OC | -14%
CCC1CCCCN1C(=O)CSc1nnc(-c2ccco2)o1 (stereo not drawn) | 4%
CN(C)c1ccc(NC(=O)Nc2cccc(Cl)c2)cc1 | -13%
CNc1nc(-c2ccc(C(=O)N(C)C)cc2)nc2ccccc12 | 0%
CC(C)(C)NC(=O)c1ccc2c(c1)C(=O)N(C1CCCCC1)C2=O | 25%
CCc1nnc(NC(=O)c2ccc(S(=O)(=O)N3CCOCC3)cc2)s1 | 8%
O=C(CSc1nnnn1-c1cccc2ccccc12)N1CCOCC1 | 44%
Cc1cc(Nc2ccc(F)cc2)n2nc(C)nc2n1 | -7%
CCC(O)C(C)(C)C (stereo not drawn) | -7%
CCOC(=O)N1CCC(NC(=O)C2CCN(c3ccc(N4CCOCC4)nn3)CC2)CC1 | 7%
O=C(O)CCc1ccc(-c2ccc(F)cc2)n1Cc1ccco1 | 6%
CC(C)CCn1c(N2CCC(C(N)=O)CC2)nc2c1c(=O)[nH]c(=O)n2C | 3%
CCNCCNC(=O)c1c(O)c2cccc3c2n(c1=O)CCC3 | 13%
Cc1cc(C)nc(N2CCCC(C(=O)Nc3ccc4c(c3)OCO4)C2)n1 (stereo not drawn) | 26%

Brought forward from above: five entries, then new ones.
SMILES | AmpC inh no det
CCOC(=O)N1CCC(NC(=O)C2CCN(c3ccc(N4CCOCC4)nn3)CC2)CC1 | 7%
O=C(O)CCc1ccc(-c2ccc(F)cc2)n1Cc1ccco1 | 6%
CC(C)CCn1c(N2CCC(C(N)=O)CC2)nc2c1c(=O)[nH]c(=O)n2C | 3%
CCNCCNC(=O)c1c(O)c2cccc3c2n(c1=O)CCC3 | 13%
Cc1cc(C)nc(N2CCCC(C(=O)Nc3ccc4c(c3)OCO4)C2)n1 (stereo not drawn) | 26%
O=C(Cn1nc(-c2ccccc2)c2ccccc2c1=O)Nc1ccccn1 | 24%
Cc1cc(C(=O)OCC(=O)N2CCN(C(=O)c3ccco3)CC2)c(C)n1-c1ccc(F)cc1 | 112%
COCCn1c(SCC(=O)c2[nH]c(C)c(C(C)=O)c2C)nc2ccccc21 | 37%
CC1(C)CC(=O)C=C(NCc2cccs2)C1 | 6%
CCCOC(=O)c1ccc(-n2nnnc2SCC(=O)N2CCCCC2)cc1 | 82%
COc1ccc(OCC(=O)Nc2ccccc2OC(F)F)cc1 | 48%
CCOC(=O)C(C)(C)Sc1nc2c(cnn2-c2ccc(C)cc2)c(=O)[nH]1 | 11%
O=C1CS/C(=C/C(=O)c2ccccc2)N1 | -3%

A draw from above in order of SMILES length, highest first:
SMILES | AmpC inh no det
Cc1cc(C(=O)OCC(=O)N2CCN(C(=O)c3ccco3)CC2)c(C)n1-c1ccc(F)cc1 | 112%
COCCn1c(SCC(=O)c2[nH]c(C)c(C(C)=O)c2C)nc2ccccc21 | 37%
COc1ccc(OCC(=O)Nc2ccccc2OC(F)F)cc1 | 48%
CC1(C)CC(=O)C=C(NCc2cccs2)C1 | 6%

Only part of the results is shown, so the mix of outcomes need not match the whole.
